Source: PubChem BioAssay (Broad Institute)
ID4 binder: binds human ID4 protein on microarray | 31,000 compounds, 1.2% hits | small molecule microarray, Flag-ID4 binding, fluorescence F/B | calls only | P47928;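 active = spot signal over background at p below 0.07 in all four prints; compounds were printed on slides so no solution concentration is given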;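 also: a binder raises fluorescence above local background on the spot; about 2 pmol printed per array spot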
Target sequence (P47928 whole entry, looked up): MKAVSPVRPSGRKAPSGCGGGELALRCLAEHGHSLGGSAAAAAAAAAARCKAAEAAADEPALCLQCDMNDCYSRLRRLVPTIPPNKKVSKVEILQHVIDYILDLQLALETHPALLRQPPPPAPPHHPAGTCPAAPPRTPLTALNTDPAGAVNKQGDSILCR
c-Myc SMM: binds human c-Myc on microarray; P01106; small molecule microarray, His-c-Myc binding, anti-His fluorescence; calls only; 17,000 compounds, 1.5% hits; AID 624141;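 active = spot fluorescence over background with P-value below 7% in all four replicate spots, showing protein binding; compounds were printed on slides so no solution concentration is given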;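 also: score is binary with 100 for all four spots passing and 0 otherwise; about 2 pmol printed per array spot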
Target sequence (P01106 whole entry, looked up): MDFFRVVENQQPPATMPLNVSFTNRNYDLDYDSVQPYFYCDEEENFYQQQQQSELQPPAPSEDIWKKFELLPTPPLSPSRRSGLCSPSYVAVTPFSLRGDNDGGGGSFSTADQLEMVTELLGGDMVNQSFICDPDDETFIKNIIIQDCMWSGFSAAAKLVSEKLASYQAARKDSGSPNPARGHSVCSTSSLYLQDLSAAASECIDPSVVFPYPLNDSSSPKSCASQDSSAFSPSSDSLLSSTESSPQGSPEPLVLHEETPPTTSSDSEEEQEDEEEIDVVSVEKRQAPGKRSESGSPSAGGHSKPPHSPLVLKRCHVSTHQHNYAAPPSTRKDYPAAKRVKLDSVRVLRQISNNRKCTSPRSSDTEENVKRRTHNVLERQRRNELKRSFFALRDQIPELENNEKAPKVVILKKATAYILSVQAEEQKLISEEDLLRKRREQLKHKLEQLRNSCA
STAT3 SMM: binds human STAT3 on microarray | AID 624138 | 17,000 compounds, 0.2% hits | calls only | P40763 | Small molecule microarray, His-STAT3 binding, anti-His fluorescence;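 active = compounds whose four printed spots each show fluorescence over background unusually high for their array block, chance value under 7%; compounds were printed on slides so no solution concentration is given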;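 also: about 2 pmol printed per array spot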
p53 mut binder: binds human mutant p53 on microarray | small molecule microarray binding, anti-GST fluorescence | calls only | 17,000 compounds, 0.4% hits | AID 624136;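 active = compounds whose four printed spots each glow above background more than chance allows, each with a p-value under 7%; compounds were printed on slides so no solution concentration is given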;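 also: about 2 pmol printed per array spot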
Calls only; i = inactive; / = no result given; + = active, no number. Not all compounds are listed. The share of hits here may be higher or lower than overall.

SMILES	ID4 binder	c-Myc SMM	STAT3 SMM	p53 mut binder
C[C@@H]1CCCCO[C@@H](CN(C)Cc2ccccc2)[C@H](C)CN([C@@H](C)CO)C(=O)c2cc(NC(=O)CCCN(C)C)ccc2O1	i	i	i	i
COC(=O)COc1ccc(NC(=O)C2CCCO2)cc1 (stereo not drawn)	i	i	i	i
CN(C)CCCN1C(=O)C(=O)C(C(=O)c2ccco2)C1c1ccc([N+](=O)[O-])cc1 (stereo not drawn)	i	i	i	i
Cc1nnc(SCC(=O)N2N=CCC2c2ccccc2)s1 (stereo not drawn)	i	i	i	i
O=C(CSC1=NCCN1)C1COc2ccccc2O1 (stereo not drawn)	i	i	i	i
O=C(O)CCCC(=O)Nc1ccc(Br)cc1C(=O)O	i	+	i	i
COc1cc(C[C@H]2C(=O)OC[C@@H]2Cc2ccc(O[C@@H]3O[C@H](CO)[C@@H](O)[C@H](O)[C@H]3O)c(OC)c2)ccc1O	/	i	i	i
CNC[C@H]1Oc2c(N)cccc2C(=O)N([C@@H](C)CO)C[C@@H]1C	i	i	i	i
CC(C)NC(=O)Nc1ccc2c(c1)CC(=O)N([C@@H](C)CO)C[C@@H](C)[C@@H](CN(C)Cc1ccc(-c3ccccc3)cc1)O2	i	i	i	i
O=C(/C=C/c1ccccc1)OCC1=CC[C@@H]2C(C(=O)O)=CO[C@@H](O[C@@H]3O[C@H](CO)[C@@H](O)[C@H](O)[C@H]3O)[C@H]12	i	i	i	i
Cc1ccc(Cn2c(NCc3nc4ccccc4n3C)nc3ccccc32)cc1	i	i	i	i
COc1cc(Br)cc2cc(C(=O)NCCCN3CCOCC3)c(=O)oc12	i	i	i	i
C[C@@H]1CCCCO[C@H](CN(C)C)[C@@H](C)CN([C@H](C)CO)C(=O)c2cc(NC(=O)Nc3ccc(C(F)(F)F)cc3)ccc2O1	i	i	i	i
C[C@@H]1CN([C@@H](C)CO)C(=O)c2cc(NC(=O)CCCN(C)C)ccc2O[C@@H](C)CCCCO[C@H]1CN(C)S(=O)(=O)c1ccccc1	i	i	i	i
C[C@H](CO)N1C[C@H](C)[C@@H](CN(C)C(=O)NC2CCCCC2)Oc2c(NC(=O)Nc3ccccc3)cccc2C1=O	i	i	i	i

Whole records from above. Order of values: ID4 binder	c-Myc SMM	STAT3 SMM	p53 mut binder
Cc1ccc(Cn2c(NCc3nc4ccccc4n3C)nc3ccccc32)cc1 across the screens: i	i	i	i
CC(C)NC(=O)Nc1ccc2c(c1)CC(=O)N([C@@H](C)CO)C[C@@H](C)[C@@H](CN(C)Cc1ccc(-c3ccccc3)cc1)O2 across the screens: i	i	i	i
CNC[C@H]1Oc2c(N)cccc2C(=O)N([C@@H](C)CO)C[C@@H]1C across the screens: i	i	i	i
COc1cc(Br)cc2cc(C(=O)NCCCN3CCOCC3)c(=O)oc12 across the screens: i	i	i	i
Cc1nnc(SCC(=O)N2N=CCC2c2ccccc2)s1 (stereo not drawn) across the screens: i	i	i	i

Additional results:
SMILES	ID4 binder	c-Myc SMM	STAT3 SMM	p53 mut binder
COc1ccc(OCC(=O)Nc2ccc(-c3nc4ccccc4s3)c(Cl)c2)cc1	i	i	i	i
O=C(C1=C[C@H](C2CC2)C[C@H](OCCCCO)O1)N1CCN(Cc2ccc3c(c2)OCO3)CC1	i	i	i	i
COc1ccc([Si](C)(C)[C@@H]2[C@@H](CCn3cc([C@H](O)c4ccccc4)nn3)O[C@]3(C(=O)N(Cc4cccc(N5CCOC5=O)c4)c4ccccc43)[C@H]2C)cc1	/	i	i	i
CCO[C@@H]1OC(C(N)=O)=C[C@H](C2CCCCC2)[C@H]1CCCO	i	i	i	i
C[C@H](CO)N1C[C@H](C)[C@@H](CN(C)C(=O)Nc2cccc3ccccc23)Oc2ccc(NC(=O)Cn3cnnn3)cc2CC1=O	i	i	i	i
CC(C)NC(=O)N(C)C[C@H]1Oc2c(NC(=O)C3CCOCC3)cccc2C(=O)N([C@H](C)CO)C[C@@H]1C	i	i	i	i
C[C@H](CO)N1C[C@H](C)[C@H](CN(C)C(=O)Nc2cccc3ccccc23)Oc2ccc(NC(=O)CCC(F)(F)F)cc2CC1=O	i	i	i	i
C[C@@H]1CN([C@@H](C)CO)C(=O)Cc2cc(NC(=O)NC3CCCCC3)ccc2O[C@H]1CN(C)C(=O)Nc1ccccc1	i	i	i	i
C[C@@H]1CN([C@@H](C)CO)C(=O)c2cc(NC(=O)Cc3ccccc3)ccc2O[C@@H](C)CCCCO[C@@H]1CN(C)C(=O)CCCN(C)C	i	i	i	i
Cc1noc(C)c1S(=O)(=O)Nc1cccc2c1O[C@H](CN(C)Cc1ccccc1)[C@H](C)CN([C@@H](C)CO)C2=O	i	i	i	i
C[C@@H]1CN([C@H](C)CO)C(=O)CCCn2cc(nn2)CO[C@H]1CN(C)C(=O)Nc1ccc2c(c1)OCO2	i	i	i	i
CC(C)NC(=O)Nc1cccc2c1O[C@H](CN(C)Cc1ccccc1)[C@@H](C)CN([C@@H](C)CO)C2=O	i	i	i	i
CNC[C@H]1OCCCC[C@@H](C)Oc2ccc(NC(=O)NC(C)C)cc2C(=O)N([C@@H](C)CO)C[C@H]1C	i	i	i	i
C[C@H](CO)N1C[C@H](C)[C@H](CN(C)S(C)(=O)=O)OCc2cn(nn2)CCCC1=O	/	i	i	i
C[C@@H]1CN([C@H](C)CO)C(=O)CCCn2cc(nn2)CO[C@@H]1CN(C)C(=O)Nc1ccc(N2CCCCC2)cc1	i	i	i	i

Overlap with the part before: 2 entries, followed by the next part.
SMILES	ID4 binder	c-Myc SMM	STAT3 SMM	p53 mut binder
C[C@H](CO)N1C[C@H](C)[C@H](CN(C)S(C)(=O)=O)OCc2cn(nn2)CCCC1=O	/	i	i	i
C[C@@H]1CN([C@H](C)CO)C(=O)CCCn2cc(nn2)CO[C@@H]1CN(C)C(=O)Nc1ccc(N2CCCCC2)cc1	i	i	i	i
C[C@H](CO)N1C[C@H](C)[C@H](CN(C)CC2CC2)OCCCC[C@H](C)Oc2ccc(NC(=O)Nc3ccccc3)cc2C1=O	i	i	i	i
COc1ccc(S(=O)(=O)N(C)C[C@@H]2Oc3ccc(NC(=O)Cn4cnnn4)cc3C(=O)N([C@H](C)CO)C[C@@H]2C)cc1	i	i	i	i
Oc1ccc(Br)cc1CNc1nc2ccccc2[nH]1	i	i	i	i
C[C@@H]1CCCCO[C@H](CN(C)C(=O)Nc2ccccc2)[C@@H](C)CN([C@H](C)CO)C(=O)c2cc(NC(=O)Nc3ccccc3)ccc2O1	i	i	i	i
O=C(Nc1ccccc1)C1=C[C@H](c2ccc(Br)cc2)C[C@H](OCc2ccc(CO)cc2)O1	/	i	i	i
CCO[C@@H]1OC(C(=O)N2CCOCC2)=C[C@H](C)[C@H]1CCCO	/	i	i	i
CNC[C@@H]1OCCCC[C@H](C)Oc2ccc(N(C)C)cc2C(=O)N([C@H](C)CO)C[C@H]1C	i	i	i	i
CNC[C@H]1OCc2cnnn2CCCC(=O)N([C@@H](C)CO)C[C@@H]1C	i	i	i	i
Cc1noc(C)c1S(=O)(=O)Nc1ccc2c(c1)C(=O)N([C@@H](C)CO)C[C@H](C)[C@H](CN(C)C(=O)NC(C)C)OCCCC[C@H](C)O2	i	i	i	i
COC(=O)c1c(NC(=O)C(C)Oc2ccc(F)cc2)sc(C(C)=O)c1C (stereo not drawn)	i	i	i	i
COc1ccc(COCC23N=C4SCc5ccccc5CN4[C@H](c4ccccc4O2)[C@H]3COC(=O)c2ccccc2)cc1	i	i	i	i
CCCNC(=O)[C@@]1(C)c2ccccc2C(=O)N(Cc2ccccc2)[C@H]1c1ccc(CO)cc1	i	i	i	i
COc1ccc(S(=O)(=O)Nc2cccc3c2O[C@@H](CN(C)S(=O)(=O)c2ccc(F)cc2)[C@H](C)CN([C@H](C)CO)C3=O)cc1	i	i	i	i
Cc1ccc(C(C)C)c(O)c1C(=O)O	i	i	i	i
C[C@H]1CN([C@@H](C)CO)C(=O)c2cc(N(C)C)ccc2O[C@H]1CN(C)Cc1ccc(C(F)(F)F)cc1	i	i	i	i
CC(C)(O)C(O)COc1c2ccoc2cc2oc(=O)ccc12 (stereo not drawn)	i	i	i	i
C[C@@H]1CN([C@H](C)CO)C(=O)c2cc(NC(=O)NC3CCCCC3)ccc2O[C@H]1CN(C)C(=O)Nc1ccc2c(c1)OCO2	i	i	i	i
CC(=O)Nc1ccc(S(=O)(=O)NC2(C(F)(F)F)C(=O)N(C3CCCCC3)C(C)=C2C(C)=O)cc1 (stereo not drawn)	i	i	i	i
C[C@@H]1CN([C@H](C)CO)C(=O)Cc2cc(NC(=O)c3ccncc3)ccc2O[C@@H]1CN(C)Cc1ccccc1	/	i	i	i
C[C@H](CO)N1C[C@H](C)[C@@H](CN(C)S(=O)(=O)c2cccs2)Oc2ccc(NC(=O)Cc3cn(C)c4ccccc34)cc2CC1=O	i	i	i	i
C[C@@H]1CCCCO[C@H](CN(C)S(C)(=O)=O)[C@H](C)CN([C@@H](C)CO)C(=O)c2cc(NC(=O)c3ccncc3)ccc2O1	/	i	i	i
CSc1ccccc1NC(=O)C(C)n1nc([N+](=O)[O-])c(Br)c1C (stereo not drawn)	i	i	i	i
Cc1noc(C)c1S(=O)(=O)Nc1ccc2c(c1)C(=O)N([C@@H](C)CO)C[C@H](C)[C@H](CN(C)C(=O)Cc1ccccc1)OCCCC[C@H](C)O2	i	i	i	i
COc1ccc(S(=O)(=O)N(C)C[C@@H]2Oc3c(NC(=O)c4ccncc4)cccc3C(=O)N([C@H](C)CO)C[C@@H]2C)cc1	i	i	i	i
CCOC(=O)c1cnc2oc3ccc(O)cc3c2c1-c1ccccc1	/	i	i	i
CO/N=C(\C(=O)N[C@@H]1C(=O)N2C(C(=O)O)=C(COC(C)=O)CS[C@H]12)c1csc(N)n1	i	i	i	i
Cn1c(SCC(=O)N2CCc3ccccc32)nnc1-c1ccc(NC(=O)c2ccccc2Br)cc1	i	i	i	i
C[C@H]1CN([C@@H](C)CO)C(=O)c2cc(NC(=O)Cc3cn(C)c4ccccc34)ccc2O[C@H]1CN(C)CC1CC1	i	i	i	i
CCO/C([O-])=N\c1c[n+](N2CCOCC2)no1	/	i	i	i
CNC[C@H]1Oc2c(NS(=O)(=O)c3ccc(OC)cc3)cccc2C(=O)N([C@@H](C)CO)C[C@@H]1C	i	i	i	i
C[C@H](CO)N1C[C@H](C)[C@@H](CN(C)S(=O)(=O)c2ccc(F)cc2)Oc2c(NS(=O)(=O)c3ccc(Cl)cc3)cccc2C1=O	/	i	i	i
O=C1O[C@@H](c2ccccc2)[C@@H](c2ccccc2)N2[C@@H](c3ccccc3OCCO)[C@]3(C(=O)Nc4ccccc43)[C@@H](C(=O)N3CCCCCCC3)[C@H]12	i	+	i	+
Cc1cccc(CN(C)C[C@H]2OCc3cn(nn3)CCCC(=O)N([C@@H](C)CO)C[C@@H]2C)c1	i	i	i	i
Cc1ccc([N+](=O)[O-])cc1NC(=O)CN(Cc1ccccc1)S(C)(=O)=O	i	i	i	i
C=CCNC(=O)[C@H]1[C@@H]2C(=O)O[C@@H](c3ccccc3)[C@@H](c3ccccc3)N2[C@@H](c2ccccc2OCCO)[C@]12C(=O)Nc1ccc(C#CCNC(N)=O)cc12	i	i	i	i
COc1ccc(NC(=O)Nc2cccc3c2O[C@@H](CN(C)S(=O)(=O)c2ccc(OC)cc2)[C@@H](C)CN([C@H](C)CO)C3=O)cc1	i	i	i	i
CNC[C@@H]1OCCCC[C@H](C)Oc2ccc(NC(=O)Nc3ccc(F)cc3)cc2C(=O)N([C@@H](C)CO)C[C@H]1C	/	i	i	i
C[C@H]1CCCCO[C@H](CN(C)Cc2ccncc2)[C@@H](C)CN([C@@H](C)CO)C(=O)c2cc(N(C)C)ccc2O1	i	i	i	i
C[C@H]1CN([C@@H](C)CO)C(=O)c2cccc(NC(=O)C3CCOCC3)c2O[C@H]1CN(C)CC1CC1	i	i	i	i
N#CC1=C(SCC(=O)Nc2cccc3cccnc23)NC(=O)C(C#N)C12CCCCC2 (stereo not drawn)	i	i	i	i
O=C(Nc1ccccc1)C1=C[C@H](C2CC2)C[C@H](OCCCCO)O1	i	i	i	i
C[C@@H]1CN([C@@H](C)CO)C(=O)c2cc(NC(=O)Cc3ccccc3)ccc2O[C@H]1CN(C)C(=O)Nc1ccccc1	i	i	i	i
C[C@@H]1CN([C@H](C)CO)C(=O)c2cc(NC(=O)Nc3ccc(C(F)(F)F)cc3)ccc2O[C@@H]1CN(C)C(=O)NC1CCCCC1	i	i	i	i
Cc1cc(Cl)ccc1OC(C)C(=O)Nc1cccc(NC(=O)c2ccco2)c1 (stereo not drawn)	i	i	i	i
COc1ccc(CN(C)C[C@H]2Oc3c(NS(=O)(=O)c4cn(C)cn4)cccc3C(=O)N([C@H](C)CO)C[C@@H]2C)cc1	i	i	i	i
C[C@@H]1CN([C@@H](C)CO)C(=O)c2cccc(NC(=O)c3ccncc3)c2O[C@@H]1CN(C)C(=O)Nc1ccccc1	i	i	i	i
C=C1C2=C(O[C@H](/C(C)=C/C(C)CC(C)CC)[C@@H](O)[C@@H]2O)C(=O)N1OC (stereo partly drawn)	i	i	i	i
CC1CCc2c(sc3ncnc(SCCO)c23)C1 (stereo not drawn)	i	i	i	i
CC(C)(c1ccc(NS(=O)(=O)C(F)(F)F)cc1)c1ccc(C(C)(C)c2cccc(NS(=O)(=O)C(F)(F)F)c2)cc1	i	i	i	i
